Env fusion inh = inhibitors of HIV Env-mediated cell fusion | 360,000 tested, 1.1% active | inhibition, % at 12.3 µM | HeLa-JRFL Env/CEM21 cell fusion, luciferase | AID 651610;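 active = mean replicate inhibition score of at least 50 and every replicate individually at or above 50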;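 also: 0% = plate neutral controls and 100% = maraviroc near 300 nM; one replicate is shown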
UUG fidelity = modulators of start codon recognition fidelity in yeast. S. cerevisiae UUG-firefly luciferase reporter, luminescence/redox ratio. activity score, % at 18.7 µM. 350,000 tested, 0.13% active;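 active = replicate mean at a twofold rise or more, about +100% in these data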;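 also: firefly luciferase made from a UUG start codon reports start codon fidelity; reporter light over untreated wells divided by growth signal over untreated wells; some hits fall short of that in this replicate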
Starred values were filed as active, the others as inactive; [ ] = another dose, or the depositor's remark. Not all compounds are listed. The share of hits here may be higher or lower than overall.

SMILES	Env fusion inh	UUG fidelity
O=C(C[C@H]1CC[C@H](NS(=O)(=O)c2ccc(F)cc2)[C@H](CO)O1)N1CCc2ccccc2C1	-7[16.7 µM]	6
C[C@@H]1CN([C@H](C)CO)C(=O)c2cc(-c3ccccc3)cnc2O[C@@H]1CN(C)C(=O)Nc1ccccc1	-24[16.7 µM]	8
C[C@@H]1CN([C@H](C)CO)C(=O)c2cc(C#Cc3ccccc3F)cnc2O[C@@H]1CN(C)C(=O)C1CCC1	11[16.7 µM]	-10
Cc1noc(C)c1NC(=O)N[C@@H]1C=C[C@H](CC(=O)N2CCCCC2)O[C@@H]1CO	-10[16.7 µM]	-7
Cc1ccc(S(=O)(=O)Nc2ccc3c(c2)C(=O)N([C@H](C)CO)C[C@H](C)[C@@H](CN(C)C(=O)c2ccccc2)OCCCC[C@H](C)O3)cc1	-31[16.7 µM]	15
C[C@H](CO)N1C[C@H](C)[C@H](CN(C)Cc2ccccc2)Oc2ncc(C#Cc3ccc(F)cc3)cc2C1=O	18[16.7 µM]	-2
CC(C)C#Cc1cnc2c(c1)C(=O)N([C@@H](C)CO)C[C@H](C)[C@@H](CN(C)Cc1cccc(F)c1)O2	-60[16.7 µM]	5
CC(C)NC(=O)N[C@@H]1CC[C@H](CC(=O)O)O[C@H]1CO	6[16.7 µM]	-9
C[C@H](CO)N1C[C@H](C)[C@H](CN(C)C(=O)c2ccc3c(c2)OCO3)Oc2cc(-c3cccnc3)ccc2S1(=O)=O	10[16.7 µM]	22
C[C@@H]1CN([C@H](C)CO)S(=O)(=O)c2ccc(C3=CCCCC3)cc2O[C@H]1CN(C)C(=O)C1CCCCC1	29[16.7 µM]	4
C[C@H](CO)N1C[C@H](C)[C@H](CN(C)C(=O)c2cccc(F)c2)Oc2ncc(/C=C/c3ccccc3)cc2C1=O	-12[16.7 µM]	19
C/C=C/c1cnc2c(c1)C(=O)N([C@H](C)CO)C[C@@H](C)[C@H](CN(C)C(=O)CN1CCOCC1)O2	-7[16.7 µM]	-5
C[C@@H]1CN([C@@H](C)CO)S(=O)(=O)c2ccc(C#Cc3ccccc3)cc2O[C@@H]1CN(C)C(=O)Nc1ccccc1	-42[16.7 µM]	-7
C[C@@H]1CN([C@H](C)CO)S(=O)(=O)c2ccc(-c3ccc(C(=O)N(C)C)cc3)cc2O[C@@H]1CN(C)C	-7[16.7 µM]	-5
CC(C)NC(=O)N(C)C[C@H]1Oc2cc(C#CC(C)(C)O)ccc2S(=O)(=O)N([C@@H](C)CO)C[C@@H]1C	-16[16.7 µM]	-2
Cc1noc(C)c1S(=O)(=O)Nc1ccc2c(c1)C(=O)N([C@H](C)CO)C[C@@H](C)[C@@H](CN(C)C(=O)CCCN(C)C)OCCCC[C@H](C)O2	1[16.7 µM]	7
CCCN1C[C@H](C)[C@H](OC)CN(C)C(=O)c2ccc(NC(=O)c3cccc(OC)c3)cc2OC[C@@H]1C	-11[16.7 µM]	-1
Cc1noc(C)c1NC(=O)N(C)C[C@H]1Oc2cc(C#CCC(C)C)ccc2S(=O)(=O)N([C@@H](C)CO)C[C@@H]1C	-51[16.7 µM]	8
CNC[C@H]1OCCCC[C@H](C)Oc2ccc(NS(C)(=O)=O)cc2C(=O)N([C@@H](C)CO)C[C@H]1C	29[16.7 µM]	6
C[C@@H](O)C#Cc1ccc2c(c1)O[C@@H](CN(C)C(=O)CC1CC1)[C@@H](C)CN([C@@H](C)CO)S2(=O)=O	-19[16.7 µM]	-12

3 entries drawn at random from the list so far:
SMILES	Env fusion inh	UUG fidelity
C[C@@H](O)C#Cc1ccc2c(c1)O[C@@H](CN(C)C(=O)CC1CC1)[C@@H](C)CN([C@@H](C)CO)S2(=O)=O	-19[16.7 µM]	-12
C[C@H](CO)N1C[C@H](C)[C@H](CN(C)Cc2ccccc2)Oc2ncc(C#Cc3ccc(F)cc3)cc2C1=O	18[16.7 µM]	-2
Cc1ccc(S(=O)(=O)Nc2ccc3c(c2)C(=O)N([C@H](C)CO)C[C@H](C)[C@@H](CN(C)C(=O)c2ccccc2)OCCCC[C@H](C)O3)cc1	-31[16.7 µM]	15

More compounds:
SMILES	Env fusion inh	UUG fidelity
C[C@@H]1CN([C@@H](C)CO)C(=O)c2cc(-c3cccc(F)c3)cnc2O[C@H]1CN(C)Cc1ccccn1	-11[16.7 µM]	-13
CCCNC(=O)C[C@@H]1C[C@@H]2c3cc(NC(=O)CN(C)C)ccc3O[C@@H]2[C@@H](CO)O1	31[16.7 µM]	-13
O=C(CN1CCOCC1)N[C@H]1CC[C@H](CCNC(=O)C2CCCCC2)O[C@@H]1CO	8[16.7 µM]	-9
C[C@@H]1CN([C@H](C)CO)C(=O)Cc2cc(NC(=O)Nc3cccc4ccccc34)ccc2O[C@@H]1CN(C)S(=O)(=O)c1ccccc1	-4[16.7 µM]	-15
C[C@@H]1CN([C@@H](C)CO)C(=O)c2cc(C#Cc3cccc(F)c3)cnc2O[C@H]1CN(C)C(=O)C1CC1	1[16.7 µM]	22
C[C@@H]1CCCCO[C@@H](CN(C)S(=O)(=O)c2ccc(F)cc2)[C@H](C)CN([C@@H](C)CO)C(=O)c2cc(NC(=O)Cc3ccccc3)ccc2O1	2[16.7 µM]	14
CCNC(=O)C[C@@H]1C=C[C@H](NS(=O)(=O)c2ccc(C)cc2)[C@H](CO)O1	8[16.7 µM]	-15
C[C@H](CO)N1C[C@H](C)[C@@H](CN(C)Cc2ccc(C(=O)O)cc2)Oc2ccc(NC(=O)Cc3ccccc3)cc2CC1=O	11[16.7 µM]	-9
C[C@@H]1CN([C@H](C)CO)C(=O)Cc2cc(NS(=O)(=O)c3cccs3)ccc2O[C@H]1CN(C)S(=O)(=O)c1ccc(Cl)cc1	-18[16.7 µM]	6
C[C@@H]1CCCCO[C@H](CN(C)S(=O)(=O)c2cn(C)cn2)[C@@H](C)CN([C@H](C)CO)C(=O)c2cc(NC(=O)Cc3ccccc3)ccc2O1	-5[16.7 µM]	-11
CN(C)C(=O)C[C@@H]1C[C@H]2c3cc(NS(=O)(=O)c4ccc(F)cc4)ccc3O[C@H]2[C@H](CO)O1	90*[16.7 µM]	-6
O=S(=O)(N[C@H]1CC[C@H](CCn2cc(C3(O)CCCC3)nn2)O[C@@H]1CO)c1ccccc1	-7[16.7 µM]	-9
CNC(=O)C[C@@H]1CC[C@@H]2[C@@H](COc3ccc(NC(=O)c4cscn4)cc3C(=O)N2C)O1	-3[16.7 µM]	-4
COc1ccc(NC(=O)Nc2ccc3c(c2)CC(=O)N([C@@H](C)CO)C[C@@H](C)[C@@H](CN(C)S(=O)(=O)c2cccs2)O3)cc1	0[16.7 µM]	4
Cc1ccc(S(=O)(=O)Nc2ccc3c(c2)CC(=O)N([C@@H](C)CO)C[C@@H](C)[C@@H](CN(C)S(=O)(=O)c2ccc(C)cc2)O3)cc1	19[16.7 µM]	3
C[C@@H]1CN([C@@H](C)CO)C(=O)c2cc(NS(=O)(=O)c3ccc(F)cc3)ccc2O[C@@H]1CN(C)S(C)(=O)=O	6[16.7 µM]	5
O=C(Nc1ccc(C(F)(F)F)cc1)N[C@@H]1CC[C@H](CCn2cc(C3(O)CCCC3)nn2)O[C@@H]1CO	-14[16.7 µM]	-11
C[C@@H]1CCCCO[C@H](CN(C)C(=O)CCCN(C)C)[C@@H](C)CN([C@H](C)CO)C(=O)c2cc(NC(=O)Nc3ccccc3)ccc2O1	-3[16.7 µM]	-14
CN(C)C(=O)C[C@@H]1C[C@@H]2c3cc(NS(C)(=O)=O)ccc3O[C@@H]2[C@H](CO)O1	5[16.7 µM]	-6
O=C(NCC[C@@H]1CC[C@@H](NC(=O)C2CCOCC2)[C@@H](CO)O1)c1ccc(F)cc1	6[16.7 µM]	4
COc1ccc(NC(=O)N(C)C[C@H]2OCCCC[C@H](C)Oc3ccc(NC(=O)CCC(F)(F)F)cc3C(=O)N([C@H](C)CO)C[C@@H]2C)cc1	-6[16.7 µM]	24
COc1ccc(NC(=O)Nc2ccc3c(c2)CC(=O)N([C@@H](C)CO)C[C@@H](C)[C@@H](CN(C)C(=O)Nc2ccc4c(c2)OCO4)O3)cc1	17[16.7 µM]	-5
O=C(N[C@H]1CC[C@@H](CC(=O)N2CCCCC2)O[C@@H]1CO)c1cccc(F)c1	-44[16.7 µM]	60
C[C@H](CO)N1C[C@H](C)[C@H](CN(C)C(=O)CN(C)C)Oc2cc(C3=CCCCC3)ccc2S1(=O)=O	18[16.7 µM]	1
C[C@H](CO)N1C[C@H](C)[C@@H](CN(C)Cc2ccccc2C(=O)O)Oc2ncc(C3=CCCCC3)cc2C1=O	-26[16.7 µM]	38
COc1ccc(S(=O)(=O)Nc2ccc3c(c2)CC(=O)N([C@H](C)CO)C[C@H](C)[C@H](CN(C)S(=O)(=O)c2ccccc2)O3)cc1	84*[16.7 µM]	-2
O=C(NC1CCCCC1)N[C@@H]1CC[C@H](CCNS(=O)(=O)c2ccccc2)O[C@@H]1CO	-56[16.7 µM]	-2
Cc1ccc(S(=O)(=O)Nc2ccc3c(c2)C(=O)N([C@@H](C)CO)C[C@H](C)[C@H](CN(C)C(=O)CCCN(C)C)OCCCC[C@H](C)O3)cc1	-29[16.7 µM]	7
O=C(C[C@@H]1CC[C@@H](NC(=O)Nc2cc(F)ccc2F)[C@@H](CO)O1)NCc1ccc2c(c1)OCO2	0[16.7 µM]	-3
C[C@@H]1CCCCO[C@@H](CN(C)C(=O)Nc2ccc(C(F)(F)F)cc2)[C@H](C)CN([C@@H](C)CO)C(=O)c2cc(NC(=O)Nc3ccc(F)cc3)ccc2O1	18[16.7 µM]	-15
CCC(=O)N[C@@H]1C=C[C@H](CC(=O)NCc2cc(F)cc(F)c2)O[C@H]1CO	-15[16.7 µM]	9
COCC#Cc1cnc2c(c1)C(=O)N([C@@H](C)CO)C[C@@H](C)[C@@H](CN(C)C(=O)c1cccc(F)c1)O2	-115[16.7 µM]	2
C[C@@H]1CN([C@H](C)CO)C(=O)c2cc(N(C)C)ccc2O[C@H]1CN(C)C(=O)Nc1cccc2ccccc12	-2[16.7 µM]	-10
C[C@H]1CN([C@@H](C)CO)S(=O)(=O)c2ccc(-c3cccnc3)cc2O[C@H]1CN(C)C(=O)NC1CCCCC1	3[16.7 µM]	0
O=C(C[C@@H]1C=C[C@@H](NC(=O)Cc2ccccn2)[C@H](CO)O1)NCCCN1CCOCC1	8[16.7 µM]	-17
C[C@H](CO)N1C[C@H](C)[C@@H](CN(C)Cc2ccc(C(F)(F)F)cc2)Oc2ccc(NC(=O)CCCCCC(=O)Nc3ccccc3N)cc2CC1=O	-30[16.7 µM]	-10
COCC(=O)Nc1ccc2c(c1)C(=O)N(C)[C@@H]1CC[C@H](CC(=O)NCc3ccccc3Cl)O[C@H]1CO2	-5[16.7 µM]	6
COc1ccc(-c2cnc3c(c2)C(=O)N([C@H](C)CO)C[C@H](C)[C@H](CN(C)S(=O)(=O)c2ccc(C)cc2)O3)cc1	16[16.7 µM]	14
C[C@H]1CN([C@@H](C)CO)C(=O)c2cc(NC(=O)C3CCCCC3)ccc2O[C@@H]1CN(C)Cc1ccc(C(F)(F)F)cc1	33[16.7 µM]	15
O=C(N[C@@H]1CC[C@H](CCNS(=O)(=O)Cc2ccccc2)O[C@@H]1CO)c1ccccc1F	-14[16.7 µM]	25

In the list so far, these contain an aryl methoxy group:
SMILES	Env fusion inh	UUG fidelity
CCCN1C[C@H](C)[C@H](OC)CN(C)C(=O)c2ccc(NC(=O)c3cccc(OC)c3)cc2OC[C@@H]1C	-11[16.7 µM]	-1
COc1ccc(NC(=O)Nc2ccc3c(c2)CC(=O)N([C@@H](C)CO)C[C@@H](C)[C@@H](CN(C)S(=O)(=O)c2cccs2)O3)cc1	0[16.7 µM]	4
COc1ccc(NC(=O)N(C)C[C@H]2OCCCC[C@H](C)Oc3ccc(NC(=O)CCC(F)(F)F)cc3C(=O)N([C@H](C)CO)C[C@@H]2C)cc1	-6[16.7 µM]	24
COc1ccc(NC(=O)Nc2ccc3c(c2)CC(=O)N([C@@H](C)CO)C[C@@H](C)[C@@H](CN(C)C(=O)Nc2ccc4c(c2)OCO4)O3)cc1	17[16.7 µM]	-5
COc1ccc(S(=O)(=O)Nc2ccc3c(c2)CC(=O)N([C@H](C)CO)C[C@H](C)[C@H](CN(C)S(=O)(=O)c2ccccc2)O3)cc1	84*[16.7 µM]	-2
COc1ccc(-c2cnc3c(c2)C(=O)N([C@H](C)CO)C[C@H](C)[C@H](CN(C)S(=O)(=O)c2ccc(C)cc2)O3)cc1	16[16.7 µM]	14

Following part
SMILES	Env fusion inh	UUG fidelity
C[C@@H]1CN([C@H](C)CO)C(=O)c2cccc(NC(=O)C3CCOCC3)c2O[C@H]1CN(C)C(=O)Nc1cccc2ccccc12	-5[16.7 µM]	5
CCCNC(=O)C[C@@H]1CC[C@H]2[C@H](COc3ccc(NC(=O)c4ccc(Cl)cc4)cc3C(=O)N2C)O1	26[16.7 µM]	7
O=C(C[C@H]1CC[C@@H]2[C@H](COC[C@@H](O)CN2C(=O)c2cnccn2)O1)NCc1ccc(F)cc1	-10[16.7 µM]	-13
C[C@H]1CN([C@@H](C)CO)C(=O)c2cc(-c3ccccc3)cnc2O[C@@H]1CN(C)C	-14[16.7 µM]	-9
C[C@@H]1CN([C@@H](C)CO)C(=O)c2cc(NS(=O)(=O)c3ccc(F)cc3)ccc2O[C@H]1CN(C)C(=O)Nc1ccccc1	-15[16.7 µM]	1
C[C@H](CO)N1C[C@H](C)[C@@H](CN(C)Cc2ccc(-c3ccccc3)cc2)Oc2c(NS(C)(=O)=O)cccc2C1=O	0[16.7 µM]	16
C[C@H]1CCCCO[C@@H](CN(C)C(=O)Nc2ccc(C(F)(F)F)cc2)[C@@H](C)CN([C@@H](C)CO)C(=O)c2cc(NS(C)(=O)=O)ccc2O1	-3[16.7 µM]	-3

Entries listed above that bear a hit mark in Env fusion inh:
SMILES	Env fusion inh	UUG fidelity
CN(C)C(=O)C[C@@H]1C[C@H]2c3cc(NS(=O)(=O)c4ccc(F)cc4)ccc3O[C@H]2[C@H](CO)O1	90*[16.7 µM]	-6
COc1ccc(S(=O)(=O)Nc2ccc3c(c2)CC(=O)N([C@H](C)CO)C[C@H](C)[C@H](CN(C)S(=O)(=O)c2ccccc2)O3)cc1	84*[16.7 µM]	-2
